Screens as filed in PubChem.
AmpC inh no det – blocks E. coli AmpC beta-lactamase in absence of detergent; AmpC nitrocefin hydrolysis, absorbance 480 nm, no detergent; potencies from a single point are estimates; Potency, µM (titrated, usually from 28.7 µM), for inactives: at the highest dose activity change, negative = inhibition; actives 1.8% (n = 71,000); AID 585; active = falling curve, for most hits resting on a single point; inconclusive = weak or doubtful change; inactive = flat or rising curve; further: % of control where 0% means no effect; about half of the hits show no inhibition at the top dose; a quarter of the inactives give rising signals
Target sequence (P00811 whole entry, looked up): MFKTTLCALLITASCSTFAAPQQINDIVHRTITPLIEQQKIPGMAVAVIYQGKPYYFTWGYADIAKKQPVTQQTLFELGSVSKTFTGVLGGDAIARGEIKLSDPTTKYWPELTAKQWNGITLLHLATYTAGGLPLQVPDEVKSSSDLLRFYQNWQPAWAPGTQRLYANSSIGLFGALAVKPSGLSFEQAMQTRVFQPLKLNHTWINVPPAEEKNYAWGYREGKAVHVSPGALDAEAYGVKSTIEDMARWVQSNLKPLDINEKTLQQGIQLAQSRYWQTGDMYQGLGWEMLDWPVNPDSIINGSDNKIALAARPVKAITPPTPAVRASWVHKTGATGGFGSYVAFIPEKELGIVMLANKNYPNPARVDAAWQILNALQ
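Enzyme, pH 7.0 phosphate. Compound titrations were pre-incubated with AmpC for 15 min at room temperature before nitrocefin (stock 800 uM) addition; product formation was recorded at 480 nm every 20 s for 4 min.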
* = called active by the depositor; ? = inconclusive; & = joins results of further samples; [ ] = remark or other dose. Potency means the concentration at half of the fitted maximal effect. The list is partial, so the mix of outcomes need not match the whole.

SMILES	AmpC inh no det
COCCn1c(=O)c(CCc2ccccc2)nc2cnc(Nc3ccccc3)nc21	4%
S=C=Nc1cccc2ccccc12	-10%
COC(=O)[C@H]1C[C@@H]1[C@H](NS(=O)(=O)c1ccc2ccccc2c1)c1ccccc1	1%
CC(=O)c1ccc(N2CCN(S(=O)(=O)c3cccc(S(=O)(=O)N4CCOCC4)c3)CC2)cc1	41%
Cc1ccccc1-c1noc(-c2cccs2)n1	5%
CCn1c(COc2ccc(C)cc2)nnc1SCC(=O)Nc1ccc2c(c1)OCCO2	19%
COc1cc(C(=O)Nc2cc(-c3nc4cc(C)ccc4o3)ccc2C)cc(OC)c1OC	26%
CCOc1ccc(OCCSc2nc(C)cc(=O)[nH]2)cc1	-11%
CCCCn1c(SCC(=O)N2CC(C)CC(C)C2)nc2cc(S(N)(=O)=O)ccc21 (centres undefined)	19%
CCOc1ccccc1N(CC(=O)Nc1ccc2c(c1)OCCO2)S(C)(=O)=O	24%
COc1cc(C(=O)N2CCN(C(=O)c3ccccc3)CC2)cc(OC)c1OC	0%
COc1ccc2nc(C)c(C(=O)OCCN(C)C)cc2c1	-1%
CCOC(=O)N1CCN(C(=O)C2CCN(S(=O)(=O)CC)CC2)CC1	-4%
CCSC1=NCN(CCCC(=O)O)CN1	1%
O=C(c1ccc(Cl)cc1)N(Cc1cccs1)C1CCS(=O)(=O)C1 (centres undefined)	24%
Cc1ccc(C)c(S(=O)(=O)c2c(N)n(/N=C/c3ccco3)c3nc4ccccc4nc23)c1	19%
CC(CCc1ccccc1)NC(=O)COC(=O)C1=COCCO1 (centres undefined)	-2%
O=C(Cn1nnc(-c2ccccc2)n1)OCc1csc(-c2ccccc2)n1	1%
Cc1nn2c3c(cnc2c1-c1ccccc1)C(=O)CCC3	23%
CC(C)C(NC(=O)c1ccc(S(=O)(=O)N2CCOCC2)cc1)c1nc2ccccc2[nH]1 (centres undefined)	-18%
O=C(Nc1ccccc1)NC1CCN(CCCN2C(=O)c3ccccc3C2=O)CC1	11%
CCn1cc(C(=O)OC(C)C(=O)Nc2c(C)n(C)n(-c3ccccc3)c2=O)c(=O)c2ccc(C)nc21 (centres undefined)	12%
CCC(C)C(NC(=O)c1ccc(Cl)cc1)C(=O)O (centres undefined)	2%
O=C(NCc1ccc(F)cc1)C1CCC(=O)N1C1CCCCC1 (centres undefined)	-3%
O=C1CC(c2ccccc2)CC(O)=C1C=NCCN1CCNCC1 (centres undefined)	9%
Additional compounds:
SMILES	AmpC inh no det
COC(=O)c1cn(C(=O)c2cccs2)c2ccccc12	2%
CNS(=O)(=O)c1ccc(NC(=O)C(CCSC)NC(N)=O)cc1 (centres undefined)	-11%
COc1ccc(C2CC(c3ccc(OC)cc3)n3nc(N)nc3N2)cc1 (centres undefined)	21%
CC1(C)N(O)C2CCCCC2N1O (centres undefined)	-6%
CCOC(=O)c1ccc(Nc2nnc3nc(C)cc(C)n23)cc1	2%
CC(=O)Nc1ccccc1NC(=O)CC(C)(C)C	3%
CCCN1Cc2cccc(C(=O)NCc3ccc4c(c3)OCO4)c2C1=O	21%
O=C(O)CC12C[C@H]3C[C@@H](CC(O)(C3)C1)C2	2%[5.75 µM]
CCN(CC)C(=O)c1ccc(NS(=O)(=O)c2ccccc2)cc1	1%
COCCNC(=O)CN1CCOc2ccccc21	-10%
Cc1ccc(-c2nnn(CC(=O)N(c3ccc(F)cc3)C(C(=O)NC3CCCC3)c3ccco3)n2)o1 (centres undefined)	-7%
FC(F)(F)c1ccccc1-c1ccc2ncnc(NC3CC3)c2c1	61%
O=C1Nc2ccccc2C1=Nc1ccc(-c2nnc3n2CCCCC3)cc1	-6%
CCOC(=O)c1c(C)oc2c1c1c(c3ccccc32)OCN(Cc2cccnc2)C1	93%
C[C@@]12CC(=O)[C@H]3[C@@H](CCC4=CC(=O)CC[C@]43C)[C@H]1CCC2=O	8%[12.8 µM]
CC(Oc1ccc(Cl)cc1Cl)C(=O)NCCCn1ccnc1 (centres undefined)	32%
CC(=O)NCCNc1cc(-c2ccccc2C(F)(F)F)ncn1	8%
O=C(COC(=O)c1ccccn1)Nc1ncc(C(F)(F)F)cc1Cl	2%
CCCCn1c(NCCN(C)C)nc2c1c(=O)[nH]c(=O)n2C	-8%
CC(C)OC(=O)C1C(=O)CC(C)(O)C(C(=O)OC(C)C)C1c1cccc(O)c1 (centres undefined)	18%
[O-][n+]1onc2c1CCC1N(O)CCC21O (centres undefined)	-13%
CCCCN(CC)S(=O)(=O)c1ccc2c(c1)CCCN2C(C)=O	43%
O=C(Cn1cnc2ccccc2c1=O)NCC(=O)N1CCN(c2ccccn2)CC1	26%
O=C(CN(C(=O)C1CSC(=O)C1)c1ccccc1F)NCc1ccc2c(c1)OCO2 (centres undefined)	1%
O=C(CCCC1=NS(=O)(=O)c2ccccc2N1)N1CCN(c2ccccc2)CC1	24%
(cont.)
SMILES	AmpC inh no det
Cc1cc2cc(CN(Cc3ccco3)C(=O)NCc3ccccc3)c(=O)[nH]c2cc1C	-5%
CCS(=O)(=O)NCCc1cc2cc(C)c(C)cc2[nH]c1=O	10%
CCC(C)NC(=O)CCNS(=O)(=O)c1ccc(Br)cc1 (centres undefined)	6%
c1ccc(Cc2nnc3sc(Nc4ccccc4)nn23)cc1	-13%
CC(=O)c1ccc(NC(=O)C2CCC(C)NC2=O)cc1 (centres undefined)	-2%
NC(=O)C1CCCN(Cc2ccc(Cl)cc2)C1 (centres undefined)	-6%
Cc1ccccc1-n1c(Cn2c(=O)sc3ccccc32)nnc1SCC(=O)N1CCOCC1	122%
COc1ccc(Cn2c(=O)[nH]c3cc(C(=O)N4CCN(Cc5ccccc5)CC4)ccc3c2=O)cc1	117%
Cc1ccc(NS(=O)(=O)c2ccc(NC(=O)c3ccc(Br)o3)cc2)c(C)c1	?
CCOc1ccc(NC(=O)CSc2nnc(-c3ccccc3Cl)n2Cc2ccco2)cc1	23%
O=C(O)CCC(=O)NC1CCCCC1NC(=O)CCC(=O)O (centres undefined)	-10%
O=C(CCS(=O)(=O)c1cccc2nonc12)N1CCOCC1	-7%
Cc1ccc(Nc2nc(N3CCOCC3)c3ccccc3n2)cc1	10%
CSC1=NCCN1C(=O)c1cccs1	-9%
CC(=O)C1=C(O)C(=O)N(Cc2cccnc2)C1c1ccc(Cl)cc1Cl (centres undefined)	-8%
COCCN1C(=O)C(=O)/C(=C(/O)c2cccc(OC)c2)C1c1ccncc1 (centres undefined)	-2%
CCn1c(SCC(=O)Nc2cc(C)on2)nnc1-c1cccs1	-4%
CCCN(CCC)[C@@H]1CCc2cccc(O)c2C1	30%&-5%&-5%&4%
Cc1ccc(C(=O)NC2CCCc3ccccc32)o1 (centres undefined)	-5%
O=C(O)/C=C\c1ccc[c]([Sb](=[O])([OH])[OH])c1	-3%[5.75 µM]
COc1cc(OC)c(N2CC34C=CC(O3)C(C(=O)O)C4C2=O)cc1Cl (centres undefined)	-2%
CC1CCN(CCCNC(=O)C2CC(=O)N(C3CCCCCC3)C2)CC1 (centres undefined)	6%
C=C[C@@H]1C[C@@]1(C)[C@@H](NP(=O)(c1ccccc1)c1ccccc1)c1ccccc1	60%
C=C1C(=O)C=C2CN(C(=O)c3ccccc3)[C@@](Cc3ccc(F)cc3)(C(=O)OC)[C@@H]12	71%
CS(=O)(=O)N1CCC(C(=O)NCc2ccncc2)CC1	0%
(more compounds)
SMILES	AmpC inh no det
CC(C)Nc1c(N)c(=O)oc2ccccc12	-12%
Fc1ccccc1CSc1nnc(-c2cccs2)o1	2%
CCCOc1ccccc1C1SCC(=O)Nc2c1c(=O)[nH]n2C(C)CCC (centres undefined)	-7%
Cc1ccc2c(CC(=O)NCc3ccc4c(c3)OCO4)coc2c1	-10%
Cc1cc(C)n(-c2nnc(C)n2/N=C/c2cc(Br)ccc2OCc2ccccc2)n1	99%
O=C(CSc1nnc(CNc2ccccc2)o1)N1CCN(C(=O)c2ccco2)CC1	25%
O=C(Nc1cnc2sc3c(n2c1=O)CCCC3)c1ccc(F)cc1	37%
COc1ccc(Br)c2c1C[C@H](C(=O)O)CC2	5%[5.75 µM]
COC(=O)C1=C(C)NC(=O)CC1c1cc(Br)ccc1F (centres undefined)	2%
COc1ccc(S(=O)(=O)N(Cc2nc3ccccc3c(=O)[nH]2)C2CCCC2)cc1	0%
CC(C)Sc1oc(-c2ccco2)nc1S(=O)(=O)c1ccccc1	15%
CCOc1ccccc1N1CCN(CC(=O)Nc2nnc(CC)s2)CC1	42%
O=C(NCc1ccc2c(c1)OCO2)C1CCCN(S(=O)(=O)c2cccc3nonc23)C1 (centres undefined)	10µM*[single pt active]
COc1cccc(OC)c1C(=O)Nc1c(C)n(C)n(-c2ccccc2)c1=O	4%
Cc1ccc(NC(=O)c2cccs2)cc1NC(=O)c1ccco1	-18%
CCCC1=C(C(=O)OCC)C(c2ccccc2OC)NC(=O)N1 (centres undefined)	9%
CC(C)CCn1c(SCCN2CCOCC2)nc2c1c(=O)[nH]c(=O)n2C	35%
c1ccc(SC(Sc2ccccc2)c2ccc3c(c2)OCO3)cc1	-7%[5.75 µM]
Cc1ccc(S(=O)(=O)c2nc(NC3CCS(=O)(=O)C3)sc2Cl)cc1 (centres undefined)	22%
CCCCN1C(=O)C(NC(C)=O)c2ccccc21 (centres undefined)	3%
CCCOc1ccccc1-c1nc2c([nH]1)c(=O)[nH]c(=O)n2C	12%
CC(C)(C)c1ccc(S(=O)(=O)NCC(=O)N2CCN(C(=O)c3ccco3)CC2)cc1	72%
CCOC(=O)c1[nH]c(C)c(C(=O)OCC(=O)NC(=O)NC(C)(C)C)c1C	-11%
OC(CN1C2=NCCCN2c2ccccc21)c1ccc2c(c1)OCO2 (centres undefined)	-3%
O=C(COc1ccccc1)NCC(=O)NC1=NCCS1	-13%

Given bar-delimited: 17 of the compounds above
canonical_smiles | AmpC inh no det
CC(C)Nc1c(N)c(=O)oc2ccccc12 | -12%
Fc1ccccc1CSc1nnc(-c2cccs2)o1 | 2%
CCCOc1ccccc1C1SCC(=O)Nc2c1c(=O)[nH]n2C(C)CCC (centres undefined) | -7%
Cc1ccc2c(CC(=O)NCc3ccc4c(c3)OCO4)coc2c1 | -10%
Cc1cc(C)n(-c2nnc(C)n2/N=C/c2cc(Br)ccc2OCc2ccccc2)n1 | 99%
O=C(CSc1nnc(CNc2ccccc2)o1)N1CCN(C(=O)c2ccco2)CC1 | 25%
O=C(Nc1cnc2sc3c(n2c1=O)CCCC3)c1ccc(F)cc1 | 37%
COc1ccc(Br)c2c1C[C@H](C(=O)O)CC2 | 5%[5.75 µM]
COC(=O)C1=C(C)NC(=O)CC1c1cc(Br)ccc1F (centres undefined) | 2%
COc1ccc(S(=O)(=O)N(Cc2nc3ccccc3c(=O)[nH]2)C2CCCC2)cc1 | 0%
CC(C)Sc1oc(-c2ccco2)nc1S(=O)(=O)c1ccccc1 | 15%
CCOc1ccccc1N1CCN(CC(=O)Nc2nnc(CC)s2)CC1 | 42%
O=C(NCc1ccc2c(c1)OCO2)C1CCCN(S(=O)(=O)c2cccc3nonc23)C1 (centres undefined) | 10µM*[single pt active]
COc1cccc(OC)c1C(=O)Nc1c(C)n(C)n(-c2ccccc2)c1=O | 4%
Cc1ccc(NC(=O)c2cccs2)cc1NC(=O)c1ccco1 | -18%
CCCC1=C(C(=O)OCC)C(c2ccccc2OC)NC(=O)N1 (centres undefined) | 9%
CC(C)CCn1c(SCCN2CCOCC2)nc2c1c(=O)[nH]c(=O)n2C | 35%

New compounds follow.
SMILES	AmpC inh no det
COc1ccc(CCNC(=O)c2c(O)c3cccc4c3n(c2=O)CC4)cc1	26%
Cc1nc(=O)c(-c2ccccc2)c(C)n1CCCO	1%
CCOCC(=O)O	3%
N=c1c2c3c(sc2nc2n1CCC2)CCCC3	-19%
Cn1c(=O)cc(SCC(=O)Nc2ccc3c(c2)OCO3)c2ccccc21	8%
CCOC(=O)N1CCN(c2c(NCCCN(CC)c3cccc(C)c3)c(=O)c2=O)CC1	84%
C(=Nc1ccc2c(c1)Cc1ccccc1-2)c1ccccn1	1%[5.75 µM]
O=C(CSc1nnnn1-c1ccccc1)c1cc2ccccc2oc1=O	-20%
CC1(C)CC(=O)C2=C(C1)OC(N)=C(C#N)C21CCC2(CC1)OCCO2	3%
O=C(CCCOc1ccccc1)NCC1CCCO1 (centres undefined)	8%
CCC(C)[C@H](NC(=O)NCc1ccccc1Cl)C(=O)OC (some centres undefined)	-7%
Nc1ccc(-c2ccc(Nc3cc(S(=O)(=O)O)c(N)c4c3C(=O)c3ccccc3C4=O)cc2)c(S(=O)(=O)O)c1	-10%[5.75 µM]
COC(=O)Nc1ccc(S(=O)(=O)N2CCCC(C(=O)Nc3cccc4c3OCCO4)C2)cc1 (centres undefined)	22%
Cc1ccc(S(=O)(=O)N(CC(=O)N2CCCC2)C2CCCCC2)cc1	40%
COC(=O)CC(C(=O)Nc1cc(C(=O)OC)cc(C(=O)OC)c1)N1CCN(C)CC1 (centres undefined)	-2%
O=C(NCCCn1ccnc1)c1ccco1	7%
COc1cc2c(C(=O)Nc3ccc4c(c3)OCO4)cn(CC(C)C)c(=O)c2cc1OC	108%
Cn1c(-c2ccc3c(c2)OCO3)cnc1NC(=O)CCC(=O)NCCc1ccccc1	2%
Cc1ccc(C(=O)CC2(O)C(=O)N(C)c3ccc(Br)cc32)c(C)c1 (centres undefined)	45%
Cn1cc(C(F)(F)F)nc1-c1ccc(OC[C@@H](O)CNCCOc2ccc(O)c(C(N)=O)c2)cc1	31%&9%
CCCCC(CCC(=O)Nc1ccccc1C(=O)OCC)C(=O)O (centres undefined)	-4%
COc1ccc(Cc2nnc(SCC(=O)NC(C)c3ccccc3)o2)cc1 (centres undefined)	22%
O=C(Nc1cccc(F)c1)N1CCC2(CC1)CCN(C(=O)c1ccco1)CC2	30%
CC(=O)c1c(C)n([O-])c2ccc(C)cc2[n+]1=O	-9%
Cc1ccc(CN2CCC(C(=O)NCCC(C)C)CC2)o1	22%
O=C(O)c1ccccc1C(=O)Nc1ccccc1	-7%
CCCCOc1ccc(C2CC(=O)NC2=O)cc1 (centres undefined)	-4%
CCN(CC)CCCN=Cc1c(O)n(CCc2ccc(F)cc2)c(=O)[nH]c1=O	8%
